# Compound activity from PubChem BioAssay.
# TRPV1 PAM = human TRPV1 potentiation. TRPV1-expressing cells, Fluo-8 calcium influx, capsaicin EC20 potentiation; host cell line not named in the record; control for the full effect not named in the record. potentiation, % at 8.33 µM. AID 540277. hit rate 0.02% among 320,000. Q8NER1; active means potentiation above 80%; inconclusive means 30% to 80%; inactive means below 30%; note: 0% is about no effect
#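 TRPV1-expressing cells were cultured overnight at 35.5C and loaded with Fluo-8 calcium dye for 40 to 90 min at room temperature. After a 10 s baseline, compound was added and calcium influx was read kinetically for 3 min (ex 480/em 520 nm).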
# gsp antagonist = gsp mutant antagonism; gsp-mutant cells, cAMP HTRF, 30 min; control for the full effect not named in the record; Potency, µM (highest dose often 76.9 µM), for inactives: at the top dose activity change, negative = inhibition, hits mostly inhibitors; hit rate 0.4% among 340,000; AID 624288; active = falling curve of any shape with a large fitted effect; inconclusive = falling curve, mostly with a smaller effect; inactive = flat or rising curve; cell line not stated here;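 note: intracellular cAMP measured with PDE inhibitor Ro 20-1724 present during compound exposure; potency is the fitted concentration of half-maximal effect; % is set by controls: 0 for no effect and ±100 for the full control effect; nearly all actives have a fitted effect of over 65% in size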
#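 Measurement of cellular cAMP by homogeneous time-resolved fluorescence following a 30 min compound exposure at 37C. The PDE inhibitor […] was present throughout; the assay buffer was DPBS with 0.05% BSA and 0.005% Tween 20.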
# gsp agonist = agonists of gsp mutant (McCune-Albright syndrome); hit rate 0.13% among 340,000; AID 624287; gsp mutant cells, cAMP HTRF, 30 min; control for the full effect not named in the record; Potency, µM (doses to about 76.9 µM), inactives show at the top dose activation (cAMP increase), actives largely listed as activators; active = well fitted activation curve with a large enough effect; inconclusive = small, poorly fitted or top-dose-only effect, or another doubt; inactive = no such curve, though single readings can be large or run the other way; cell line not stated here;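 note: phosphodiesterase inhibitor Ro 20-1724 added with compounds to block cAMP breakdown; potency is the fitted concentration of half-maximal effect; nearly all actives have a fitted effect of over 60% in size; about a fifth of the inactives were tested at one dose only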
#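 Cells in DMEM/10% FBS with G418 were pretreated with compounds in DMSO plus […] (300 uM stock) for 30 min at 37C. cAMP was measured by HTRF (cAMP-d2 plus anti-cAMP antibody-K) after 30 min at room temperature.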
# TRPML1 blocker = human mucolipin-1 channel inhibition. TRPML1-inducible cells, Ca2+ dye fluorescence, FDSS; stronger effect = lower value; inhibition of EC80 agonist-evoked calcium signal. activity change, negative = inhibition, % (no concentration beside the values). hit rate 0.02% among 390,000; in the data active means activity change below about -50%; inconclusive means about -30% to -50%; inactive means above about -30%;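 note: stimulus is agonist 54-4 at its EC80 concentration; % is set by controls: 0 for no effect and ±100 for the full control effect; compound concentration not given in the record; the text of the record puts the active cut at -80%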
# Target sequence (Q9GZU1 whole entry, looked up): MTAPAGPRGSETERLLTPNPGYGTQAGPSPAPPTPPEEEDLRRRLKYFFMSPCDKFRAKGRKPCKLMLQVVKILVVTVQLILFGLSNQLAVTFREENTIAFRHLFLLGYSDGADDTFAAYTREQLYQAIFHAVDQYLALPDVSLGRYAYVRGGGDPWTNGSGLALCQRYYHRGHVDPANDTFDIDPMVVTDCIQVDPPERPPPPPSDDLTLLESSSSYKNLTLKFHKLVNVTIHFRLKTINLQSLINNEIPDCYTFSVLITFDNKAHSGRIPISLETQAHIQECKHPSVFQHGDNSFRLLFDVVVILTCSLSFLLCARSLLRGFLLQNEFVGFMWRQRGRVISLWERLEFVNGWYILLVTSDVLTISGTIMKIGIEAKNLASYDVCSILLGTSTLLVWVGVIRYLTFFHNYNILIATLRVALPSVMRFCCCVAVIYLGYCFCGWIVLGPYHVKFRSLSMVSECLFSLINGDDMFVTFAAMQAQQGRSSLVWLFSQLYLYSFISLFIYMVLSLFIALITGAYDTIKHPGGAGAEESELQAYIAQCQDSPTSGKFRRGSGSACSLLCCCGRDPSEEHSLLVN
#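 TRPML1-DL cells, Tet-induced overnight (~16 h, 37 °C) at 1,500 cells/well, were loaded with Ca8 no-wash dye plus quencher for 45-90 min at room temperature. Compounds were pinned during FDSS kinetic reading; agonist 54-4 at EC80 (4 uM final) then added.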
# ClpP mod = qHTS Assay for Activators of ClpP | purified B. subtilis ClpP, FRET peptide cleavage, 20 min | Potency, µM (doses to about 57.5 µM), for inactives: at the top dose activity change, negative = active | hit rate 1.9% among 340,000 | AID 651965, 2013; active = well fitted falling curve with a large enough effect; inconclusive = small, poorly fitted or top-dose-only effect; inactive = no such curve, though single readings can be large or run the other way; note: potency is the fitted concentration of half-maximal effect; the source files actives as falling curves though it sought activators and does not explain the sign; nearly all actives have a fitted effect of over 65% in size; many hits overshoot -100%
# Target sequence (P80244 whole entry, looked up): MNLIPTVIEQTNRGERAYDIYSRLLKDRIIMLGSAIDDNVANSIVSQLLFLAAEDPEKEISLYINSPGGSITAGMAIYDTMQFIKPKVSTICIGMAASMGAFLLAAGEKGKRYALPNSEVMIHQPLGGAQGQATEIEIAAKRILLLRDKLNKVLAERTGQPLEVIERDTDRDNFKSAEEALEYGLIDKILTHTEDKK
#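 Purified B. subtilis ClpP, 10 microg/mL final in Tris/HCl pH8 with KCl, BSA, glycerol and Tween-20, cleaved an Abz/nitrotyrosine-quenched decapeptide. Fluorescence (ex 320, em 430) was read at 0 and 20 min at room temperature. Delta was normalized to 5.8 microM ADEP and DMSO/no-enzyme controls.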
# Sfp inh = inhibitors of Bacillus subtilis Sfp phosphopantetheinyl transferase | Biochemical Sfp PPTase activity, qHTS | Q9F4F7 | Potency, µM, without a hit: max response, negative = inhibition, most hits filed as inhibitors | AID 1490 | hit rate 3.5% among 310,000; active = well fitted inhibition curve with a large enough effect; inconclusive = small, poorly fitted or top-dose-only effect, or another doubt; inactive = no such curve, though single readings can be large or run the other way;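 note: the enzyme is Sfp with the accession as filed and its product quenches rhodamine fluorescence; potency is the fitted concentration of half-maximal effect; 0% = enzyme reaction without inhibitor and -100% = no enzyme wells; top concentration of the series not given in the record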
#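 Compounds were incubated with enzyme (final 15 nM) for 15 min at room temperature before substrate addition started the reaction. Fluorescence at 525 nm excitation, 598 nm emission was recorded immediately and after 30 minutes.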
# Menin-MLL FL inh = menin-MLL binding inhibition, fluorescein peptide | Fluorescence polarization, fluorescein-MLL peptide displacement from menin | FP activity change, % at 61.4 µM | 290,000 tested, under 10 active; inconclusive = falling polarisation curve, or a change in total fluorescence; inactive = total fluorescence flat and polarisation flat or rising; no compound was filed as active; the % refers to the polarisation; negative = inhibition;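 note: % of control where 0% means no effect; inhibitors lower the polarisation; unlabelled MLL peptide was the positive control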
# An asterisk follows results filed as active; ? = inconclusive; . = no result given; & = joins results of further samples; [ ] = remark or other dose.
SMILES,TRPV1 PAM,gsp antagonist,gsp agonist,TRPML1 blocker,ClpP mod,Sfp inh,Menin-MLL FL inh
CC(C)NC(=O)c1nc2ccccc2s1,-9,-1%,-13%,35,-1.6%,26%,-0.1
CCNC(=S)Nn1cnc2ccccc21,12,10%,-30%,25,-2.0%,-22%,1.7
COc1cc(/C=N/NC(=O)CSCc2ccc([N+](=O)[O-])cc2)cc(OC)c1OC,4,15%,0%,9,-0.7%,15%,0.2
CCOP(=O)(OCC)C1NC(=O)N(c2ccccc2)C1=O (stereo not given),-8,-10%,?,18,-0.3%,21%,-0.1
COc1cc(C(=O)NCCC(=O)NCc2cccs2)cc(OC)c1OC,.,.,-8%,13,0.6%,.,.
O=C(N/C(=C/c1ccc([N+](=O)[O-])cc1)C(=O)N1CCCC1)c1ccccc1,6,2%,1%[15.4 µM],-14,.,7%,.
COc1ccc(O)c(/C=N/Nc2nc(C)cc(-c3ccccc3)n2)c1,.,-5%,-5%[15.4 µM],-3,.,.,.
O=C(CN1CCN(Cc2ccccc2)CC1)Nc1ccc(F)c(F)c1,?,3%,-1%,.,1.1%,56µM*,-0.2
O=C(Nc1cc(Cl)ccc1Oc1ccccc1)C1=COCCO1,5,-12%,-21%,8,1.5%,.,.
Nc1nonc1-n1nnc(C(=O)N/N=C/c2ccncc2)c1CSc1ccc(Cl)cc1,2,?,33%,-5,0.7%,9%,1.7
CCC(=O)c1ccc(OCC(=O)NCC2COc3ccccc3O2)cc1 (stereo not given),19,10%,-17%,-10,-3.7%,.,.
Cc1ccc(S(=O)(=O)CCC(=O)OCC(=O)c2c[nH]c3ccccc23)cc1,7,-18%,6%,2,2.1%,-13%,16
CC(Cc1c[nH]c2ccccc12)C(=O)N1CCN(c2ccccc2F)CC1 (stereo not given),7,-2%,?,-22,-1.6%,10%,1.8
O=[N+]([O-])c1ccccc1S(=O)(=O)Nc1ccc(S(=O)(=O)Nc2nccs2)cc1,-5,0%,-17%[15.4 µM],-2,.,4%,2.1
COc1ccc(S(=O)(=O)NC(C)C)cc1C(=O)N1CCOCC1,0,17%,6%[15.4 µM],-3,28µM*,-6%,-1.9
COC(=O)c1ccc(C(=O)Nc2ccc(F)cc2)cc1,-5,2%,.,-11,-0.2%,.,.
CCCCNC(=O)C1CCN(Cc2ccc(OCc3ccccc3)c(OC)c2)CC1,17,-4%,-3%,.,-3.4%,-8%,-7.1
CCCCOc1ccc(CSC(=N)N)cc1[N+](=O)[O-],6,-6%,34%,-3,1.6%,-10%,-2.8
COc1ccc(NC(=O)CC2C(=O)NC3CCCCC3N2C(=O)c2ccc(F)cc2)cc1 (stereo not given),3,-3%,5%[15.4 µM],-9,.,19%,1.6
O=C1c2ccccc2C(Nc2ccc3c(c2)OCCO3)N1c1ccccn1 (stereo not given),-10,-9%,-39%[inhibitor],5,-2.6%,8%,0.0
CCOc1ccc(OCCCN(C)C)cc1,2,11%,-3%,-9,-0.3%,?,2.2
CC(C)=CCN1CCN(Cc2coc3ccc(C)cc3c2=O)CC1CCO (stereo not given),-1,8%,0%,3,.,20%,-3.4
CCN(CC)C(=S)SCC(=O)Nc1nc(-c2ccccc2)c(-c2ccccc2)o1,-4,?,10%[15.4 µM],-9,.,6%,2.0
Cc1c(C(=O)NCCC2=CCCCC2)cccc1[N+](=O)[O-],-14,10%,-5%,-6,0.6%,14%,0.7
CCCn1c(-c2nonc2N)nc2ccccc21,19,-1%,?,2,-4.3%,4%,-0.1
c1ccc(CCNc2ccccc2)cc1,-6,.,.,.,.,15%,2.6
Cc1cccc(N2C(=O)CCC2=O)c1,4,2%,-17%,44,-16%,14%,1.8
CCCCOc1ccc(CSC(CC(=O)O)C(=O)O)cc1 (stereo not given),1,-5%,0%,-17,-1.6%,2%,0.6
NNC(=O)c1ccc(COc2ccc([N+](=O)[O-])cc2)o1,5,4%,2%,0,-0.8%,26%,1.7
Nc1ccc(N2CCN(C(=O)c3cccs3)CC2)cc1,8,-11%,3%,17,-1.6%,-15%,-0.6
Cc1cccc(NC(=O)N2CCC(NC(=O)c3ccco3)CC2)c1,-10,-3%,3%[15.4 µM],4,.,23%,-2.8
CCc1nnc(NC(=O)CN2CCN(c3ccccc3F)CC2)s1,-12,6%,1%,1,1.3%,-1%,-0.1
COC(=O)c1ccc(C(=O)OC)c(NC(=S)N2CC(C)CC(C)C2)c1 (stereo not given),-11,-10%,-5%,-2,-18%,-10%,0.1
Cc1c(NC(=O)COc2ccccc2Cl)c(=O)n(-c2ccccc2)n1C,?,2%,-17%,3,-1.5%,.,.
CN(Cc1ccon1)C(=O)C1CCC(=O)N(Cc2ccc(Cl)cc2)C1 (stereo not given),-6,8%,-5%,-2,-1.1%,3%,.
CN(C)c1ccc(NC(=O)CSc2nnc(C3CCCCC3)n2N)cc1,15,-2%,?,-2,-1.2%,15%,-0.6
CCN(CC)CCN(C(=O)c1cccc([N+](=O)[O-])c1)c1nc2ccc(OC)cc2s1,12,7%,0%[15.4 µM],14,.,?,1.3
COc1cccc(NC(=O)c2cc(Cl)nnc2Cl)c1,3,-1%,-138%[inhibitor],4,.,20%,5.6
COCCN(CCOC)Cc1c(O)ccc2c3c(c(=O)oc12)CCC3,8,0%,1%,-20,-43%,3%,0.4
CCCCOc1ccc(S(=O)(=O)N2CCCCCC2)cc1,-2,5%,5%,17,-0.9%,9%,0.1
O=C(Cc1ccccc1)NNC1=NS(=O)(=O)c2ccccc21,5,4%,-2%[15.4 µM],-8,.,11%,-0.1
COc1cccc2cc(C(=O)NCc3ccccc3)c(=N)oc12,0,2%,-8%,1,193%,-3%,16
COc1cccc(C(=O)NC2CCN(CC(=O)Nc3cccc(C)c3C)CC2)c1,4,1%,?,14,-0.4%,18%,2.2
CCOC(=O)N1CCC(N2CCCC(C(=O)c3ccccc3OC)C2)CC1 (stereo not given),-1,6%,-3%[15.4 µM],4,.,10%,-6.6
CCCCc1ccccc1NC(=S)NC1CCCC1,-3,-11%,7%,-10,0.2%,2%,5.1
COc1ccc(C2=C(Nc3ccc(C)cc3)c3ccccc3C2=O)cc1,-13,-3%,31%,13,2.2%,5%,7.9
CCOc1ccccc1C=NNC(=O)C1CC1,.,-3%,-17%,-11,.,.,.
COC(=O)c1cccc(N2C(=O)C3CC=CCC3C2=O)c1 (stereo not given),4,19%,-45%[inhibitor],10,0.1%,20%,-0.7
COc1ccc(-c2nn(C)c(=O)c3ccccc23)cc1CNC(=O)NC1CCCCC1,-4,.,.,.,.,?,-1.6
CC(=O)c1cc(CC(=O)N2CCc3c([nH]c4ccccc34)C2c2ccccn2)cs1 (stereo not given),-8,-13%,-24%,-18,.,20µM*,-4.1
# (listing goes on)
SMILES,TRPV1 PAM,gsp antagonist,gsp agonist,TRPML1 blocker,ClpP mod,Sfp inh,Menin-MLL FL inh
CCOC(=O)c1[nH]c(C)c(/C(O)=C2\C(=O)C(=O)N(CCCn3ccnc3)C2c2ccncc2)c1C (stereo not given),0,4%,15%,0,1.2%,11%,0.0
Cc1c(CC(=O)NC(C)C)c(=O)oc2cc3c(cc12)CCC(C)(C)O3,0,3%,-3%,17,3.3%,9%,-0.9
O=C(NCC(=O)N1CCCC1)c1ccc(Br)cc1,-12,5%,14%[15.4 µM],-2,.,4%,-6.8
COC(=O)C1=C(C(=O)OC)[C@@H]2N(C)c3ccccc3[C@@]23C[C@@H](C(=O)OC)N(C(=O)c2ccc(Br)cc2)C3=N1,-9,-8%,.,-3,0.7%,9%&-3%,-0.9[11.7 µM]
COc1cc(N(C)C)c([N+](=O)[O-])cc1C(=O)N1CCN(Cc2ccccc2)CC1,?,.,20%[15.4 µM],21,.,-5%,8.5
O=C(O)C1CC(=O)N(c2ccc(OCc3c(F)cccc3Cl)cc2)C1 (stereo not given),17,-2%,8%,-13,-4.2%,15%,8.1
COC(=O)[C@]1(Cc2ccccc2)N[C@H](c2ccc(-c3ccc(OC)cc3)cc2)[C@@H]2C(=O)N(C)C(=O)[C@@H]21,-1,-9%,17%,20,?,.,.
O=C(NNC(=S)NCc1ccccc1)c1ccc(OC(F)F)cc1,26,7%,-46%[inhibitor],3,-5.2%,23%,4.6
CCOC(=O)c1sc(=S)n(-c2ccccc2OC)c1N,6,2%,-3%,1,-2.0%,-63%,4.2
O=C(NCc1ccccn1)C1CCN(S(=O)(=O)c2ccccc2C(F)(F)F)CC1,-6,13%,0%[15.4 µM],7,0.1%,.,.
O=C(c1cnc2sccn2c1=O)N1CCN(c2ccccc2Cl)CC1,-20,18%,-7%,14,.,-7%,-1.9
CCOP(=O)(OCC)C(Nc1cccc(C(F)(F)F)c1)c1ccc(C)cc1 (stereo not given),-20,3%,-7%[15.4 µM],0,0.0%,14%,1.3
CCCCC(=O)Nc1cccc(-c2ccc3nncn3n2)c1,15,7%,16%,26,-1.3%,8%,1.4
O=c1cc(C(F)(F)F)[nH]c2c(OC(F)(F)F)cccc12,7,?,1%,7,.,8%,0.7
COc1cc(C=O)c(Br)cc1OC1CCCC1,-7,-4%,17%,4,-4.3%,18%,0.6
O=C1CCSc2ccc(Cl)cc2N1Cc1ccccc1,-1,0%[15.4 µM],-26%,38,-3.3%,13%,-1.0
COc1ccccc1/C=C1\C(=O)Nc2ccccc21,0,-4%,8%,-5,1.9%,0%,0.5
O=C(CSc1nncc(=O)[nH]1)NC1CCCCC1,10,19%,-9%[15.4 µM],13,.,-30%,-4.9
COc1ccccc1/C=C/C(=O)NCC(=O)N1CCC(N(C)C2CCCC2)CC1,2,9%,?,-6,4.4%,-9%,5.4

# 3 compounds from above, sorted by the number in Menin-MLL FL inh, high to low.
mol,gsp antagonist,gsp agonist,TRPML1 blocker,Sfp inh,Menin-MLL FL inh
COc1ccccc1/C=C/C(=O)NCC(=O)N1CCC(N(C)C2CCCC2)CC1,9%,?,-6,-9%,5.4
CCCCC(=O)Nc1cccc(-c2ccc3nncn3n2)c1,7%,16%,26,8%,1.4
COc1cc(C=O)c(Br)cc1OC1CCCC1,-4%,17%,4,18%,0.6
